Assay outcomes from PubChem BioAssay.
GLA inh pH 4.5: qHTS Assay for Inhibitors of Human alpha-Galactosidase at pH 4.5. Alpha-galactosidase A (Homo sapiens), P06280. purified enzyme, 4-MU-alpha-Gal fluorescence, pH 4.5. activity change, negative = inhibition, % at 105 µM. 230,000 tested, under 10 active; inconclusive = small, poorly fitted or top-dose-only inhibition, or a rising curve; inactive = flat fitted curve, though single readings scatter; no compound was filed as active;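 also: 0% = full activity with enzyme and -100% = basal without enzyme; dose as in the result columns while the protocol names 77 µM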
Target sequence (P06280 whole entry, looked up): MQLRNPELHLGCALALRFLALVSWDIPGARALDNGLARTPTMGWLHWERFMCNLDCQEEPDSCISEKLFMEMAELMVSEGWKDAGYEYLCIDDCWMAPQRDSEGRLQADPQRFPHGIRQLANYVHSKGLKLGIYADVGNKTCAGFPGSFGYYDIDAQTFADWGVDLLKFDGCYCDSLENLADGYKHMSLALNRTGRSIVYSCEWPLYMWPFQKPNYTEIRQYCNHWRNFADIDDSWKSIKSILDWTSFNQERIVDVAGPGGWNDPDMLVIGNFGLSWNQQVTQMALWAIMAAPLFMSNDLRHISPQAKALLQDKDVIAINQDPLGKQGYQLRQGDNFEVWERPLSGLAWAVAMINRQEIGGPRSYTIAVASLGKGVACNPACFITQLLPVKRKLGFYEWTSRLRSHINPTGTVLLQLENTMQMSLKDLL
Rango release inh: qHTS Assay for Inhibitors of RanGTP induced Rango (Ran-regulated importin-beta cargo) - Importin beta complex dissociation; Biochemical FRET Rango-importin beta, RanGTP-induced dissociation; Potency, µM (top dose mostly 46.1 µM), for the others: at the highest dose activity change, negative = inhibition; 340,000 compounds, 0.071% hits; active means falling FRET ratio curve, often poorly fitted, with flat reads before Ran was added; inconclusive means other falling curves, or compound fluorescence or quenching; inactive means flat or rising ratio curve;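 also: potency is read from the fitted curve at half-maximal effect; % of control where 0% means no effect; nearly all actives have a fitted effect of over 45% in size; -100% = wells without RanGTP and RCC1; the record marks most hits as doubtful in a second field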
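Compounds sat 5 min at room temperature with 0.1 uM Rango biosensor plus 0.25 uM importin beta, then FRET pre-read. RanGTP-RCC1 (0.6 uM Ran, 2mM GTP, 0.2 uM RCC1) added for 45 min, and the CFP/YFP post-read measured blocked complex dissociation.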
Rango-impB inh: qHTS Assay for Inhibitors of Rango (Ran-regulated importin-beta cargo) - Importin beta complex formation; AID 540263, 2011; Potency, µM (doses to about 92.2 µM), inactives show at the top dose inhibition of complex formation; 340,000 compounds, 0.031% hits; Importin subunit beta-1 (Homo sapiens), Q14974; Rango CFP/YFP FRET sensor + importin beta, 45 min; active = rising FRET ratio curve, often small or poorly fitted; inconclusive = mostly compound fluorescence or quenching in the first reads; inactive = flat curves in all reads;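 also: potency is read from the fitted curve at half-maximal effect; 0% = DMSO wells and 100% = buffer wells lacking importin beta; nearly all actives have a fitted effect of over 15% in size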
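FRET biosensor Rango (snurportin 1 IBB between N-terminal EYFP and C-terminal Cerulean), 50 nM in PBS/1 mM DTT/0.02% Tween-20/0.1% BSA, preincubated 5 min RT with compound; 0.125 microM importin beta added, 45 min RT, CFP/YFP FRET ratio read.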
miR-21 reporter: qHTS Assay for Modulators of miRNAs and/orActivators of miR-21. HeLa miR-21 FLuc reporter, luciferase, 48 h. Potency, µM (series often up to 38.3 µM), for the others: top-dose reporter change, positive = more light. 340,000 tested, under 10 active. AID 2288, 2010; active = well fitted rising curve with a large enough effect; inconclusive = small, poorly fitted or top-dose-only effect; inactive = no such curve, though single readings can be large or run the other way;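 also: % of control where 0% means no effect; miR-21 action dims this reporter so a rising signal means less miR-21 action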
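Compounds were titrated across several concentrations (up to approximately 40 uM) and incubated 48 hours with HeLa miR-21-FLuc reporter cells (miR-21 target sequence downstream of FLuc, endogenous miR-21). Readout was firefly luciferase luminescence after lytic detection reagent.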
* = called active by the depositor; ? = inconclusive; . = not tested or not shown; & = joins results of further samples. Only part of the results is shown; the hit share may differ from the screen's.

GLA inh pH 4.5	Rango release inh	Rango-impB inh	miR-21 reporter	smiles
0.2	0.0%	0.2%	2.0%	CC1S/C(=N\N=C\c2cccc([N+](=O)[O-])c2)N(C(C)(C)C)C1=O (stereo not drawn)
3.5	3.1%	4.7%	-0.9%	CN(C)c1ccc(C=NCCC2(c3ccccc3)CCOC(C)(C)C2)cc1 (stereo not drawn)
.	-9.3%	-1.9%	-6.7%	CCOc1ccc(CCNC(=O)Cn2ncn3nc(-c4ccc(OC)cc4)cc3c2=O)cc1OCC
-2.3	.	.	-0.8%	O=C(Nc1ccccc1)N1CCN(C(=O)Nc2ccccc2)CC1
.	0.0%	-4.6%	.	CCc1cc(C(=O)Nc2nnc(C3CC3)s2)sc1C
-3.5	-5.0%	0.6%	-38.3%	CCCc1cc2c(cc1NC(=O)c1ccc(C(C)(C)C)cc1)OCO2
-12.3	1.2%	-2.3%	12.4%	COc1ccc(C(=NNc2ccccc2C(=O)O)c2ccc(OC)cc2)cc1
.	-9.9%	-1.7%	5.7%	COc1ccc(OC)c(NC(=O)NNC(=O)COc2ccc(-c3ccccc3)cc2)c1
8.8	0.3%	-4.1%	-20.5%	Cc1ccc(C)n1-c1ccc(-c2ccn[nH]2)cc1
1.1	-3.3%	5.8%	-4.0%	COc1cc(C(=O)Nc2ccc(C)cn2)c([N+](=O)[O-])cc1OC
6.8	2.4%	5.2%	1.4%	CCOC(=O)c1cn[nH]c1C(F)(F)F
-17.7	16.1%	-3.1%	-4.5%	CN(Cc1cccnc1)C(=O)CNC(=O)c1ccc(Cl)cc1Cl
9.0	6.3%	-0.8%	-8.2%	COCCNC(=O)C(c1ccco1)N(C(=O)Cn1nnc2ccccc21)c1ccccc1C (stereo not drawn)
.	-0.7%	-0.2%	-1.3%	Cc1cccc(NC(=O)NC2(C)CCS(=O)(=O)C2)c1 (stereo not drawn)
-3.3&-1.7	-0.6%&2.2%	-0.5%&-3.0%	-5.1%&-10.2%	Cc1cc(C)[n+]2n1C(=O)C(c1ccccc1)=C2[O-]
.	-11.3%	-2.1%	-0.3%	CC(=O)Nc1ccc(S(=O)(=O)NNC(=O)C2CCCCC2)cc1
5.5	27.8%	1.6%	-2.0%	CCCCNC(=O)Nc1c(C(=O)OC)[nH]c2ccc(C)cc12
.	4.9%	0.9%	.	CN(CC(=O)Nc1cccc(F)c1)C(=O)c1cccnc1Sc1ccc(Cl)cc1
-3.4	3.8%	0.6%	1.8%	O=c1c(Cc2ccc(F)cc2)c(O)ccn1Cc1ccc(F)cc1
3.3	-12.0%	-0.9%	3.1%	COc1ccc(-c2csc(NC(=O)CSc3ncn[nH]3)n2)cc1OC

Whole records as entered above.
Record of CCCCNC(=O)Nc1c(C(=O)OC)[nH]c2ccc(C)cc12 : GLA inh pH 4.5: 5.5; Rango release inh: 27.8%; Rango-impB inh: 1.6%; miR-21 reporter: -2.0%
Record of Cc1cc(C)[n+]2n1C(=O)C(c1ccccc1)=C2[O-] : GLA inh pH 4.5: -3.3&-1.7; Rango release inh: -0.6%&2.2%; Rango-impB inh: -0.5%&-3.0%; miR-21 reporter: -5.1%&-10.2%

Four entries drawn at random from the list so far, as already listed:
GLA inh pH 4.5	Rango release inh	Rango-impB inh	miR-21 reporter	smiles
0.2	0.0%	0.2%	2.0%	CC1S/C(=N\N=C\c2cccc([N+](=O)[O-])c2)N(C(C)(C)C)C1=O (stereo not drawn)
-3.3&-1.7	-0.6%&2.2%	-0.5%&-3.0%	-5.1%&-10.2%	Cc1cc(C)[n+]2n1C(=O)C(c1ccccc1)=C2[O-]
.	-9.3%	-1.9%	-6.7%	CCOc1ccc(CCNC(=O)Cn2ncn3nc(-c4ccc(OC)cc4)cc3c2=O)cc1OCC
1.1	-3.3%	5.8%	-4.0%	COc1cc(C(=O)Nc2ccc(C)cn2)c([N+](=O)[O-])cc1OC

Next section
GLA inh pH 4.5	Rango release inh	Rango-impB inh	miR-21 reporter	smiles
-1.6	2.0%	3.3%	-39.9%	CCOC(=O)c1ccc(NC(=O)c2ccccc2[N+](=O)[O-])cc1
.	1.2%	3.6%	-10.5%	Cc1n[nH]c(=O)c2c(NC(=O)CSc3nc4ccccc4c(=O)n3C(C)C)oc(C)c12
.	-0.5%	4.3%	-13.8%	CCOc1ccc(NC(=O)Cn2nnc(C(=O)NCc3ccc4c(c3)OCO4)c2N)cc1
-3.0	-10.5%	-1.0%	-1.4%	CC(C)(CO)CNC(=O)CC1C(=O)NCCN1CC(c1ccccc1)c1ccccc1 (stereo not drawn)
.	?	-0.2%	-1.8%	CCc1ccc(N(C(=O)c2snc(C(N)=O)c2N)C(C(=O)NC2CCCC2)c2ccco2)cc1 (stereo not drawn)
.	22.4%	-1.9%	10.0%	CCOc1ccccc1N(C(=O)c1snc(C(N)=O)c1N)C(C(=O)NC1CCCC1)c1cccs1 (stereo not drawn)
.	-7.7%	-1.0%	-0.3%	COc1ccc(/C=C(\NC(=O)c2ccccc2)C(=O)NCCN2CCOCC2)cc1OC
-10.0	5.0%	4.7%	-1.6%	O=C(CNCc1cccs1)Nc1ccc(S(=O)(=O)N2CCCCC2)cc1
.	13.5%	1.9%	-3.1%	O=C(CN(Cc1ccccc1)C(=O)CNS(=O)(=O)c1ccc(F)cc1)NCC1CCCO1 (stereo not drawn)
.	2.9%	-0.7%	4.3%	Cc1cccc(C(=O)NC(=S)Nc2cccc3nc(C)ccc23)c1
-1.3	-21.6%	-1.5%	4.4%	Cc1ccc(C(=O)Oc2cc(C)[nH]c(=O)c2[N+](=O)[O-])cc1
.	18.2%	2.2%	.	O=C(NCCS(=O)(=O)N1CCN(c2cccc(Cl)c2)CC1)c1ccc2c(c1)OCO2
.	-4.4%	0.4%	.	CC1CCCCN1C(=O)COC(=O)c1ccc2ccccc2n1 (stereo not drawn)
-5.3	2.2%	-0.3%	-38.0%	CN(C)c1ccc(N=Nc2ccccc2C(=O)OCC(=O)Nc2ccccc2C(F)(F)F)cc1
-2.5	-13.2%	-3.8%	-5.1%	S=C(NCc1cccs1)NCC1CCCO1 (stereo not drawn)
5.3	-1.8%	-5.7%	-22.7%	C/C(=N\N1CCN(Cc2ccc(C)cc2)CC1)c1ccco1
-10.9	4.3%	0.1%	-0.4%	CCN(CC#CCC1(O)c2ccccc2-c2ccccc21)C(C)C
-1.2	-5.1%	-3.6%	-3.5%	COc1cccc(NC(=O)Cn2nc(Cc3cccnc3)c3ccccc3c2=O)c1
.	9.9%	-0.9%	-1.2%	CC1=NN(c2ccccc2)C(=O)/C1=C/c1cccc(C)c1
1.3	-17.2%	-0.2%	-1.6%	Cc1ccc(S(=O)(=O)NCCC(=O)NCc2ccco2)cc1
0.9	-15.6%	-6.0%	0.0%	O=S(=O)(Nc1ccc2ccccc2n1)c1ccc2c(c1)CCO2
.	-8.8%	0.0%	.	CCN1Cc2cc(OC)ccc2-c2ccccc2S1(=O)=O
-3.2	?	-0.7%	-4.2%	CSc1ccccc1NC(=O)COC(=O)Cc1cccs1
10.7	-3.0%	-0.5%	-6.5%	CCOC(=O)Cc1csc(NC(=O)CN2C(=O)c3ccccc3S2(=O)=O)n1
-1.6	-0.4%	0.8%	1.2%	COC(CN(C(=O)CCl)C(C(=O)NC1CCCCC1)c1ccccc1C)OC (stereo not drawn)
-1.7	-10.5%	-0.1%	4.1%	COC(=O)[C@H](CC(C)C)NC(=O)Nc1ccc(F)cc1
1.3	-8.1%	-1.5%	-10.0%	COc1ccc(CCN(Cc2cc3cc(C)ccc3[nH]c2=O)C(=O)N2CCCC2)cc1OC
0.2	-27.0%	?	-0.9%	NC(=O)/C(=C\c1ccccc1)NC(=O)c1ccc(NC(=O)c2ccccc2)cc1
.	-9.8%	0.9%	.	COc1ccc(S(=O)(=O)N(C)C[C@H]2Oc3ccc(NC(=O)C4CC4)cc3C(=O)N([C@H](C)CO)C[C@@H]2C)cc1
-0.6	-12.3%	-4.9%	-29.4%	Cc1cccc(NC(=O)CCn2ccnc2C)c1
5.1	5.6%	0.2%	-43.0%	Cc1cccc(NC(=O)c2cccc(C(F)(F)F)c2)c1
4.7	7.6%	-3.1%	-5.4%	N/N=C1\CCCc2nonc21
1.8&-2.3	-21.7%	?	-6.9%	CC1(OC(=O)C2CCCC2)C(=O)C=C2C=C(c3ccsc3)N(Cc3ccco3)C=C2C1=O (stereo not drawn)
-8.2	-15.6%	-2.1%	-1.5%	Cc1ccc(S(=O)(=O)NCCSc2nnc(N)s2)cc1
.	-11.7%	13.9%	0.5%	Cc1nn(CC(=O)NCCN2CCOCC2)c(=O)c2cc3sccc3n12
-1.3	3.1%	-0.8%	0.0%	COc1ccccc1CN1C[C@@H]2C[C@@H](c3ccc(C)cc3)N3CCC[C@@]23C1=O
.	34.0%	-2.7%	.	COc1cccc(COC(=O)c2sc3nc4n(c(=O)c3c2C)CCC4)c1OC
.	0.1%	-1.6%	.	Cc1ccc(N2C(=O)N3[C@@H]4c5ccccc5OC[C@@H]4[C@@H](c4ccccc4)[C@@]3(C)C2=O)cc1
-11.9	1.6%	-0.2%	10.2%	COc1ccc(NC(=S)NNc2ccc([N+](=O)[O-])cc2S(=O)(=O)Nc2ccc(C)cc2C)cc1
.	-7.1%	-1.7%	.	COc1cccc(NC(=O)CN(C)C(=O)c2ccccc2Sc2ccccc2C#N)c1
-5.8	-1.7%	-0.6%	-17.0%	O=C(N/N=C/c1cccc(O)c1)c1ccccc1O
.	-8.1%	-0.5%	.	COc1cccc(CC(=O)Nc2ccc3c(c2)OC2(CCCC2)O3)c1
.	-14.5%	-1.9%	-5.5%	Cc1nc2sccn2c(=O)c1S(=O)(=O)NCC1CCN(Cc2ccccc2Cl)CC1
2.3	-8.4%	-1.4%	-5.0%	CCOC(=O)CNC(=O)Cn1cnc2ccc(S(=O)(=O)N3CCC(C)CC3)cc2c1=O
.	-5.2%	-0.8%	.	COc1ccc(S(=O)(=O)N2CCOCC2)cc1NC(=O)c1cc(=O)[nH]c2ccccc12
.	-0.3%	-0.1%	-1.0%	Cc1nn(CC(=O)NCCCN2CCN(C)CC2)c(=O)c2cc(-c3ccccc3)nn12
.	-0.7%	0.0%	4.9%	CC(C)(C)N1C(=O)[C@H]2[C@@H](c3ccc(Br)cc3)N3C(=O)N(c4ccccc4)C(=O)[C@@]3(C)[C@H]2C1=O
.	15.5%	-0.3%	-0.8%	CC(C)c1nnc(NC(=O)C2CC(=O)N(CCc3ccc(F)cc3)C2)s1 (stereo not drawn)
-3.5	11.4%	5.5%	-3.0%	COc1ccc(OCC(=O)NCc2cccnc2)cc1
.	-7.5%	-1.7%	.	Cc1nn(C)c(C)c1NS(=O)(=O)c1ccc(OC(F)(F)F)cc1
-5.3	-25.8%	?	0.7%	COc1ccc(CNC(=O)Cc2csc(Nc3nc(=S)[nH]c4ccccc34)n2)cc1
2.0	-0.2%	?	-3.1%	C/C(=N\N1CCN(C2c3ccccc3-c3ccccc32)CC1)c1cccnc1
-1.0	.	.	1.1%	Cc1ccc(C)c(NC(=S)NCc2cccn2C)c1
-7.1	-6.8%	-0.2%	-14.3%	C#CCSc1nnc(-c2ccccc2)c(=O)[nH]1
-2.2	-1.1%	-0.8%	-9.0%	COc1ccc(C2=NOC(COC(=O)c3ccc4ccccc4n3)C2)cc1 (stereo not drawn)
0.0	-9.6%	-0.8%	-10.7%	COc1ccc(C(N)=O)cc1NC(=O)CC(O)(C(F)(F)F)C(F)(F)F
.	5.5%	1.8%	.	COc1cccc(NC(=S)N2CCC(C(=O)c3ccc(F)cc3)CC2)c1
.	-12.9%	-1.8%	.	C[C@H](CO)N1C[C@H](C)[C@H](CN(C)C(=O)Nc2ccc(C(F)(F)F)cc2)Oc2c(NC(=O)c3ccncc3)cccc2C1=O
1.9	0.6%	-3.2%	-6.0%	O=C(NC1CCCc2ccccc21)c1cccc(Br)c1 (stereo not drawn)
0.4	1.2%	5.1%	-5.7%	COc1ccc(CCn2c(N3CCN(C)CC3)nc3c2c(=O)[nH]c(=O)n3C)cc1
